Biofilm kill mix: clotrimazole potentiators killing C. albicans biofilm, primary screen, 4-compound mixtures | C. albicans biofilm persisters + clotrimazole, fluorescence viability; primary screen in compound mixtures of four per well | inhibition, % at 7.6 µM | hit rate 0.02% among 120,000;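 active = inhibition above 30.3% in the primary screen of four-compound pools, then above 30% when the compound was retested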;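 note: compounds exposed to preformed 24 h biofilms for 48 h; the number belongs to the whole pool; some results filed as inactive read as strong as hits; inactives centre near 12; 0% = biofilm with clotrimazole alone and 100% = kill control; retested singly at about 60 µM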
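Incubation: 24 h biofilm formation, then 48 h compound exposure, 37 °C | Material: C. albicans biofilms | Buffer or medium: RPMI/MOPS medium, pH 7.0 | Measured by: 2-h Alamar Blue fluorescence, 535/590 nm excitation/emission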
Numbers without * were called inactive. Not all compounds are listed; count on the stated rates, not on these rows.

smiles,Biofilm kill mix
CC(C)C(Nc1ncnc2c1oc1ccccc12)C(=O)O (stereo not drawn),8
CC1=C(C(=O)OCc2ccc(C)cc2)C(c2ccc(O)c([N+](=O)[O-])c2)NC(=O)N1 (stereo not drawn),-8
CCOC(=O)NNc1ccc(C(F)(F)F)cn1,12
COc1ccc(C2C(C#N)=C(N)Oc3c2ccc2cccnc32)cc1OC (stereo not drawn),14
O=C(COc1cccc(Cl)c1Cl)Nc1ccc2c(c1)CCC2,14
CC1CCCN(C(=S)Nc2ccc(F)cc2)C1 (stereo not drawn),12
CCOc1ccccc1NC(=O)CCn1cccc1,13
Nc1nc(Nc2ccccc2)sc1C(=O)c1ccccc1,2
Cc1c(-n2c(O)c(C3=c4ccccc4=NC3=O)sc2=S)c(=O)n(-c2ccccc2)n1C,3
O=C(Nc1ccc(S(=O)(=O)N2CCCC2)cc1)c1cc(=O)c2ccccc2o1,16
Cc1ccc(CNC(=O)CNS(=O)(=O)c2ccc3nc(C)sc3c2)cc1,18
O=C(COC(=O)Cc1ccccc1F)Nc1ccc2c(c1)OCCO2,20
Cc1nn(C)cc1/C=C/C(=O)c1cccs1,13
Cc1ccsc1C(=O)Nc1ccc(F)c([N+](=O)[O-])c1,6
Cc1ccc(/C=C/C(=O)N2CC(=O)Nc3ccccc32)o1,12
Cn1nc(C(F)(F)F)cc1-c1ccc(/C=C(\C#N)C(=O)c2ccccc2)s1,15
CCn1c(COc2ccc(=O)n(-c3ccccc3)n2)nnc1SC,12
Cc1ccc(Cl)cc1N1CCN(S(=O)(=O)N2CCCCC2)CC1,11
Cc1cccc(N2CCN(C(=O)C3(S(=O)(=O)c4ccc(Cl)cc4)CC3)CC2)c1C,3
COc1ccccc1NC(=O)/C(=N/OCc1ccc(C#N)cc1)C(C)=O,1
COC(=O)c1ccc(-c2ccc(OC)c([C@H]3[C@H]4C=CC[C@@H](C)[C@@H]4C(=O)N3Cc3ccccc3)c2)cc1,14
N#C/C(=C\c1ccc(O)c(O)c1)C(=O)NCCCc1ccccc1,10
CCN(CC)c1ccc(/C=C2\CCC(/C=N/NC(=O)c3ccc(=O)n(C)c3)=C2N2CCOCC2)cc1,7
CCCOc1ccc(C(=O)NCC2OCCc3ccccc32)cc1OC (stereo not drawn),13
CSc1nsc(SC)c1C(N)=O,23
CCOc1ccc(S(=O)(=O)Nc2ccncc2)c(C)c1C,6
Cc1cccc(-c2cc(C(=O)N3CCCc4ccccc43)c3ccccc3n2)c1,4
COc1ccc2[nH]c(C)c(CCNC(=S)Nc3ccc(C)cc3)c2c1,15
Cc1ccccc1NC(=O)COC(=O)CCc1nc2ccccc2c(=O)[nH]1,7
CC(=O)[C@@]1(O)C(C)CC2C3C=C(C)C4=Cc5c(cnn5-c5ccccc5)C[C@]4(C)C3C(O)C[C@@]21C (stereo partly drawn),18
CCOC(=O)c1cnc2ccccc2c1NCc1ccco1,15
Cc1ccsc1/C=N/n1c(-c2cc(-c3ccccc3)n[nH]2)n[nH]c1=S,14
CCNC(=S)N(CCc1ccccc1C)Cc1cc2cc(OC)c(OC)cc2[nH]c1=O,19
CSc1cccc(NC(=S)N(Cc2ccccc2)Cc2ccccn2)c1,48
CC1(C(=O)N2CCN(c3ccccc3)CC2)CC1(Cl)Cl (stereo not drawn),16
CC(=O)N1CCCN(Cc2cn(-c3cccc(C)c3)nc2-c2cccc(F)c2)CC1,16
O=C(CN1CCSc2ccccc21)NCCCc1ccccc1,5
O=C(CCC(=O)Nc1ccccc1Cl)NNC(=O)c1ccco1,9
CC(C)OC(=O)C1C(=O)CC(C)(O)C(C(=O)OC(C)C)C1c1ccc([N+](=O)[O-])cc1 (stereo not drawn),15
Cc1c(C(=O)Oc2cccc3cccnc23)cccc1[N+](=O)[O-],17
COc1ccccc1NC(=O)C1CCCN(c2cc(C)nc3ncnn23)C1 (stereo not drawn),7
COc1cc(NC(=O)c2ccc(OC)c([N+](=O)[O-])c2)ccc1NC(=O)c1cccs1,-12
CCc1nnc(NC(=O)Nc2ccc(Cl)cc2)s1,25
O=c1cc(O)c2sc3nc(-c4ccccc4)cc(C(F)(F)F)c3c2[nH]1,4
O=C(CSc1nc2ccccc2o1)Nc1nc(-c2ccccc2)cs1,12
Cn1cnnc1SCC(=O)Nc1ccc(OCc2ccccc2)cc1,-1
CC(C)CC(=O)Nc1ccc2nn(-c3ccccc3)nc2c1,6
Cc1cccc(C(=O)NC(=S)NNC(=O)c2cccs2)c1,11
COc1cccc(C(=O)N2CCOCC2)c1,14
O=C(C(=O)N1CCOCC1)c1c[nH]c2ccccc12,14
COC(=O)c1cc(Cl)c(NC(=O)c2ccc(F)cc2)cc1OC,13
Cc1ccc(CN2CCN(Cc3cnn(-c4ccc(Cl)cc4)c3)CC2CCO)o1 (stereo not drawn),20
O=C(NCc1n[nH]c(=S)n1-c1ccc(Br)cc1)c1ccc(S(=O)(=O)N2CCCC2)cc1,17
O=C(O)c1ccc(/C=N/n2cc(-c3ccccc3)[nH]c2=S)cc1,16
COc1ccc(Cl)cc1C(=O)Nc1cccc(-c2ccc3nncn3n2)c1,6
COc1ccc(C2C(C(=O)Nc3cc(OC)c(OC)c(OC)c3)c3ccccc3C(=O)N2C)cc1OC (stereo not drawn),10
CCc1ccccc1NC(=O)CN(C)C(=O)CSc1nnc(Nc2cccc(C)c2)s1,6
O=C(O)c1cnc2[nH]c3ccccc3n2c1=O,15
CC(=O)c1sc(N/N=C\c2ccc(C)cc2)nc1C,14
COc1cc(C(=O)NNC(=O)C2CC=CCC2C(=O)O)cc(OC)c1OC (stereo not drawn),7

Going on with the list.
smiles,Biofilm kill mix
COc1ccc(NC(=O)c2ccc(-c3ccc(C)c4ccccc34)o2)cc1,10
CC1(C)Oc2ccc(C(=O)NN)cc2NC1=O,8
CC1CCN(C(=O)CSc2ccc(-c3ccccc3)nn2)CC1,12
COc1cccc(C(=O)NC(=S)Nc2ccc(Cl)cc2C(=O)O)c1,12
CCOC(=O)CSc1nnc([C@H](CC(C)C)NC(=O)OC(C)(C)C)o1,14
Nn1c(SCc2ccccc2)nc2c(cnn2-c2ccccc2)c1=O,6
CCC(C)NC(=O)C1CCN(S(=O)(=O)N2CCC3(CC2)OCCO3)CC1 (stereo not drawn),27
COc1cccc(CN2CCNC(=O)C2CC(=O)NC2Cc3ccccc3C2)c1 (stereo not drawn),0
CC(=O)Nc1ccc(S(=O)(=O)Oc2ccc(C=O)cc2)cc1,6
CN(C)c1cc[n+](/C(C(=S)Nc2ccc(SC(F)F)cc2)=C(/[O-])c2ccccc2)cc1,9
CN(C)CCNCCCOc1ccccc1-c1ccccc1,8
Cc1cc(-c2ccc(Cl)cc2Cl)c(C#N)c(=O)[nH]1,-1
CC(=O)NC(Cc1ccc(C)cc1)C(=O)NC1CCN(C(=O)c2ccc([N+](=O)[O-])cc2)CC1 (stereo not drawn),7
O=C(O)c1c(C(=O)N2N=C3/C(=C/c4ccccc4)CCCC3C2c2ccccc2)cccc1[N+](=O)[O-] (stereo not drawn),3
CCOc1ccc(-c2cc(C(=O)NN=C3CCN(C)CC3)[nH]n2)cc1,16
NS(=O)(=O)c1ccc(NNC(=O)c2ccc(F)cc2F)cc1,16
On1nnc2ccc3ccccc3c21,13
CC(C)c1[nH]nc2c1C(c1cccs1)C(C#N)=C(N)O2 (stereo not drawn),16
CCOc1ccc2nc(SCc3cccc(C)c3)nc(C)c2c1,18
N#C/C(=C\c1ccco1)C(=O)Nc1cccc2ncccc12,10
O=C(NCc1nc2ccccc2[nH]1)C1CCCCC1,-3
O=C(NNC(=O)c1ccc2nonc2c1)Nc1ccc(Cl)cc1,16
O=C(O)CN1C(=O)/C(=C/C=C/c2ccccc2)SC1=S,10
CC1=[N+](C)N(c2ccccc2)C(=O)C1N=Cc1c(Cl)cccc1Cl (stereo not drawn),15
Nc1cc(C(F)(F)F)ccc1Nc1ccccc1,20
Cc1cccc(N2C(=S)NC3c4cc(Cl)ccc4OC2(C)C3C(=O)N(C)C)c1 (stereo not drawn),6
O=C(O)C(Oc1ccc2c(-c3ccccc3)cc(=O)oc2c1)c1ccccc1 (stereo not drawn),25
c1ccc2c(c1)OCCOCCOCCOCCOc1ccccc1OCCOCCOCCO2,13
CCOCCCNC(=S)N1CCN(Cc2ccc3c(c2)OCO3)CC1,19
Cc1ccc(N=C2SC(C(=O)O)CC(=O)N2C)cc1C (stereo not drawn),23
CNc1cncc(C(=O)O)c1,11
CC(C)(C)c1ccc(C(=O)Nc2ccc(Cl)cc2)cc1,13
O=C(NC(=S)NNC(=O)c1cc2ccccc2cc1O)c1ccco1,18
Cc1ccc(Cn2ncc(C)c2N)o1,5
CCCc1cc(=O)[nH]c(SCc2csc(-c3ccccc3)n2)n1,2
CC(C)N(CCNCC(O)COc1ccc(C(C)(C)c2ccccc2)cc1)C(C)C (stereo not drawn),8
O=c1c(Cl)c(N2CCC3(CC2)OCCO3)cnn1C12CC3CC(CC(C3)C1)C2,20
O=C(Nc1ccc(-n2cnnn2)cc1)c1cn2ccccc2n1,21
COc1ccc([N+](=O)[O-])cc1C(=O)Nc1ccc(Cc2ccncc2)cc1,5
O=C(/C=C/c1ccc(F)cc1)NNC(=O)CCN1CCN(Cc2ccccc2)CC1,12
CC(C)CC(CO)N1CCN(C(=O)c2ccc(C(C)(C)C)cc2)CCC1=O (stereo not drawn),8
CCC1=NN2C(=N)/C(=C\c3cccn3-c3ccc(Cl)cc3)C(=O)N=C2S1,21
Brc1csc(/C=N/Nc2nc3ccccc3s2)c1,10
CCCCCC1=CCC/C1=N\NC(=O)c1ccc2c(c1)OCO2,12
CSc1ccccc1C(=O)C1CCCN(Cc2cnn(-c3ccccc3)c2)C1 (stereo not drawn),-10
CC1=NCCN1S(=O)(=O)c1cc([N+](=O)[O-])ccc1Cl,7
COc1ccc(CNC(=O)CSc2cccc3cccnc23)cc1,-6
O=C(OCc1csc(-c2ccccc2)n1)c1ccccc1O,22
Fc1ccccc1COc1ccc2ccccc2c1CNc1nn[nH]n1,20
O=C1/C(=C/c2cccc([N+](=O)[O-])c2)CSc2ccc(Cl)cc21,23
O=C(O)/C(=C\c1ccc(Br)cc1)c1ccc(S(=O)(=O)N2CCCCC2)s1,5
O=C(CN1CCN(C2CCCCC2)CC1)Nc1cccc2ccccc12,9
COc1ccc(-c2cc(C(=O)NC(Cc3c[nH]c4ccccc34)C(=O)O)c(C)o2)cc1OC (stereo not drawn),0
CSc1nc2nc3c(cc2c(=O)n1-c1ccccc1C)CCCC3,14
O=C(O)c1ccc(NC(=O)c2cn(-c3ccccc3)nc2-c2ccc(F)cc2)cc1,6
Cc1c(N=Cc2c(O)n(Cc3ccco3)c(=O)c3ccccc23)c(=O)n(-c2ccccc2)n1C,7
Cc1ccc(NC(=O)Nc2ccc(Cl)cc2)c(Br)c1,12
OCCNCC12CC3CC(CC(C3)C1)C2,15
COc1ccc(NC(=O)Cn2nnc(-c3ccccc3NS(=O)(=O)c3ccccc3)n2)cc1,10
Cc1ccc(S(=O)(=O)N(CC(=O)N/N=C/c2ccco2)c2cc(Cl)cc(Cl)c2)cc1,10

Structural class, the compounds so far containing a cyano group
smiles,Biofilm kill mix
COc1ccc(C2C(C#N)=C(N)Oc3c2ccc2cccnc32)cc1OC (stereo not drawn),14
Cn1nc(C(F)(F)F)cc1-c1ccc(/C=C(\C#N)C(=O)c2ccccc2)s1,15
COc1ccccc1NC(=O)/C(=N/OCc1ccc(C#N)cc1)C(C)=O,1
N#C/C(=C\c1ccc(O)c(O)c1)C(=O)NCCCc1ccccc1,10
Cc1cc(-c2ccc(Cl)cc2Cl)c(C#N)c(=O)[nH]1,-1
CC(C)c1[nH]nc2c1C(c1cccs1)C(C#N)=C(N)O2 (stereo not drawn),16
N#C/C(=C\c1ccco1)C(=O)Nc1cccc2ncccc12,10

Further results:
smiles,Biofilm kill mix
Cc1nc2ccccn2c1C(=O)NNS(=O)(=O)c1ccc(C(C)(C)C)cc1,8
O=c1c(Cl)c(N2CCN(c3ccc(F)cc3)CC2)cnn1-c1nc2ccccc2s1,8
CCOC(=O)N1CCN(C(c2ccc(C)cc2)c2sc3nc(C)nn3c2O)CC1 (stereo not drawn),21
CC[C@H](C)[C@@H](C(=O)N1CCNCC1)n1cc([C@@H](N)CC(C)C)nn1,17
Cc1ccc(F)c([C@H]2[C@H]3C=CC[C@@H](C)[C@@H]3C(=O)N2Cc2ccccc2)c1,9
Cc1ccccc1NC(=S)N(CCN1CCCCCC1)Cc1cccs1,11
C/C=C\C=C\C(=O)N1CC2(CC(c3cccc(NC(=O)CC)c3)=NO2)C[C@H]1C(N)=O (stereo partly drawn),11

As entered above.
Result of `O=c1c(Cl)c(N2CCN(c3ccc(F)cc3)CC2)cnn1-c1nc2ccccc2s1` in Biofilm kill mix: 8
Result of `CCOC(=O)N1CCN(C(c2ccc(C)cc2)c2sc3nc(C)nn3c2O)CC1` (stereo not drawn) in Biofilm kill mix: 21

Reformatted field by field: part of the list above.
compound: Cc1ccccc1NC(=S)N(CCN1CCCCCC1)Cc1cccs1
  Biofilm kill mix: 11

compound: C/C=C\C=C\C(=O)N1CC2(CC(c3cccc(NC(=O)CC)c3)=NO2)C[C@H]1C(N)=O (stereo partly drawn)
  Biofilm kill mix: 11

Three compounds from above, arranged by molecular weight, smallest number first:
smiles,Biofilm kill mix
Cc1nc2ccccn2c1C(=O)NNS(=O)(=O)c1ccc(C(C)(C)C)cc1,8
Cc1ccccc1NC(=S)N(CCN1CCCCCC1)Cc1cccs1,11
O=c1c(Cl)c(N2CCN(c3ccc(F)cc3)CC2)cnn1-c1nc2ccccc2s1,8
